# SARS PLP yeast – blocks SARS-CoV papain-like protease in a yeast assay; S. cerevisiae expressing SARS-CoV PLpro, growth rescue; control for the full effect not named in the record; Potency, µM (titrated, usually from 32.9 µM), for the others: at the highest dose activity, positive = growth rescue; hit rate 0.19% among 330,000; AID 485353; active means well fitted rising curve with a large enough effect; inconclusive means small, poorly fitted or top-dose-only effect; inactive means no such curve, though single readings can be large or run the other way; also: 0% is about no effect; nearly all actives have a fitted effect of over 55% in size; growth read by luminescence after 48 h
# MARV entry inh – inhibitors of Marburg virus binding or cell entry; Marburg virus pseudotyped entry inhibition, cell reporter; control for the full effect not named in the record; about a third of the inactives were read at about 46 µM; Potency, µM (series often up to 37.8 µM), for inactives: at the highest dose activity change, negative = inhibition, usual class: inhibitors; hit rate 1.8% among 300,000; active = well fitted inhibition curve with a large enough effect; inconclusive = small, poorly fitted or top-dose-only effect, or effect the other way; inactive = flat fitted curve, though single readings scatter; tested in HEK293 cells; about a fifth of its hits are not listed in these tables; also: % is scaled to controls: 0 for no effect and ±100 for the full control effect; luciferase read-out
# Cruzain inh noDet – inhibitors of Trypanosoma cruzi cruzain without detergent; P25779; purified cruzain, Z-FR-AMC fluorescence, no detergent; Potency, µM, for inactives: max response, negative = inhibition, most hits filed as inhibitors; hit rate 2.3% among 200,000; AID 1476;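 also: plate controls were enzyme without inhibitor for no effect and buffer without enzyme for full effect; nearly all actives have a fitted effect of over 40% in size; top concentration of the series not given in the record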
# Target sequence (P25779 123-467 limits assumed): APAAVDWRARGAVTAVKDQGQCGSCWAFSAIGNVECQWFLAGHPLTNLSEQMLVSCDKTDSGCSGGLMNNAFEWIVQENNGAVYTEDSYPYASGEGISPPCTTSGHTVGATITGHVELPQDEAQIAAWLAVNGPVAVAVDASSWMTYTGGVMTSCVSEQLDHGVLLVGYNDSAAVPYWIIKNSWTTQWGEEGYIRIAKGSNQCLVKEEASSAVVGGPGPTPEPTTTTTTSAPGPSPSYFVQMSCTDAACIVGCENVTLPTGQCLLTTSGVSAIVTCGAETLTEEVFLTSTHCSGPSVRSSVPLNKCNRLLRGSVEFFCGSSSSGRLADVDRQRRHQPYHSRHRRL
#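 Detergent-free condition (0.00005% Triton X-100) in acetate buffer pH 5.5 with DTT. 1.5 nM enzyme and compound were pre-mixed 15 min, then 2 uM Z-FR-AMC substrate added; reaction progress from fluorescence change between first and third reads (60 s).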
# 2A StopGo – FMDV 2A StopGo reporter, luciferase signal. AID 1159524. Potency, µM (top dose mostly 57.9 µM), without a hit: at the top dose signal change, negative = less light. human cells with a luciferase reporter of 2A StopGo recoding; control for the full effect not named in the record. hit rate 1.2% among 410,000; active = well fitted falling curve with a large enough effect; inconclusive = small, poorly fitted or top-dose-only effect; inactive = no such curve, though single readings can be large or run the other way; tested in HEK293T cells; also: % is scaled to controls: 0 for no effect and ±100 for the full control effect; nearly all actives have a fitted effect of over 45% in size; luciferase light after 4 h
# NS1 function inh – inhibitors of influenza NS1 protein function; S. cerevisiae slowed by influenza A NS1, growth recovery by OD600; Potency, µM (series often up to 46.1 µM), for inactives: top-dose activity, positive = more growth; hit rate 0.4% among 270,000; AID 2326; active means well fitted rising curve with a large enough effect; inconclusive means small, poorly fitted or top-dose-only effect; inactive means no such curve, though single readings can be large or run the other way; also: nearly all actives have a fitted effect of over 50% in size
#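 In this qHTS, NS1 from influenza A is expressed in budding yeast, where it slows growth. Cells are switched from glucose to 2% galactose medium (pH 6.0, -URA), treated with compound, and growth recovery is read at OD600.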
# Cruzain Triton – inhibitors of Trypanosoma cruzi cruzain with detergent | P25779 | purified cruzain, Z-FR-AMC fluorescence, 0.01% Triton | Potency, µM, without a hit: max response, negative = inhibition, most hits filed as inhibitors | hit rate 0.43% among 200,000 | AID 1478;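 also: plate controls were neutral wells for no effect and buffer without enzyme for full effect; nearly all actives have a fitted effect of over 40% in size; top concentration of the series not given in the record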
#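 Enzyme 1.5 nM, Z-FR-AMC 2 uM, NaOAc 100 mM pH 5.5, DTT 5 mM, Triton X-100 0.01%; 15 min RT compound preincubation; kinetic ex360/em450, 60 s delta.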
# Lassa entry inh – inhibitors of Lassa virus binding or cell entry. Lassa virus pseudotype entry inhibition, cell reporter; control for the full effect not named in the record. Potency, µM (series often up to 37.9 µM), for inactives: at the top dose activity change, negative = inhibition, actives largely listed as inhibitors. hit rate 1.2% among 300,000. AID 540256; active means well fitted inhibition curve with a large enough effect; inconclusive means small, poorly fitted or top-dose-only effect, or effect the other way; inactive means flat fitted curve, though single readings scatter; tested in HEK293 cells; also: % is scaled to controls: 0 for no effect and ±100 for the full control effect; nearly all actives have a fitted effect of over 50% in size; luciferase read-out
# RE007 growth inh – less growth of the S. pombe RE007 Vpr strain. hit rate 0.21% among 360,000. S. pombe RE007 Vpr strain, BacTiter-Glo ATP luminescence, 24 h; control for the full effect not named in the record. Potency, µM (series often up to 92.2 µM), for the others: top-dose activity change, negative = less growth; active = well fitted falling curve with a large enough effect; inconclusive = small, poorly fitted or top-dose-only effect; inactive = no such curve, though single readings can be large or run the other way;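 also: % is scaled to controls: 0 for no effect and ±100 for the full control effect; nearly all actives have a fitted effect of over 50% in size; the assay follows cell death caused by Vpr and the record does not say whether a fall means rescue or toxicity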
#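 Fission yeast strain RE007, carrying one chromosomally integrated HIV-1 vpr copy, was seeded at OD 0.01 in PMG+AL medium with 23 nL pinned compound. After 24 h at 30 °C and 99% humidity, viability was read by BacTiter-Glo luminescence.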
# * hit, by the source's call; ? = inconclusive; nt = no result given; & = joins results of further samples; [ ] = another dose, or the depositor's remark. Unless noted, calls follow the shape of the dose curve; as a rule, active = well fitted curve in the direction sought with a large enough effect; inconclusive = small, poorly fitted or top-dose-only effect, or another doubt; inactive = no such curve, though single readings can be large; an effect the other way counts as inactive or inconclusive. Potency is read from the fitted curve at half-maximal effect.
canonical_smiles,SARS PLP yeast,MARV entry inh,Cruzain inh noDet,2A StopGo,NS1 function inh,Cruzain Triton,Lassa entry inh,RE007 growth inh
CCOC(=O)C1=C(C)N(C)C(=O)NC1c1cccc(O)c1 (stereo not drawn),?,9%,-3%,0%,8%,8.3%,-14%,-4%
COc1cccc(CN2CCN(Cc3ccc(OC)c(OC)c3)CC2CCO)c1 (stereo not drawn),0%,-1%[46.1 µM],nt,-13%,0%,nt,1%,-9%
CN(c1ccccc1)S(=O)(=O)c1ccc(Cl)c(C(=O)Nc2nc3ccccc3[nH]2)c1,9%,?,?,?,10µM*,-2.5%,?,15%
Cc1ccc[n+](CC(=O)Nc2cc(C(F)(F)F)ccc2N2CCOCC2)c1,0%,8%[46.1 µM],nt,-13%,nt,nt,-3%[46.1 µM],-9%
CN(C)CCNC(=O)c1cccc2nc3cccc(F)c3nc12,nt,?,nt,-22%,nt,nt,-9%,3%
CC12CN3CC(C)(CN(C1)C3c1ccncc1)C2=O (stereo not drawn),1%,13%,-8%,-9%,2%,3.9%,0%,-6%
COc1cc(C)c(C(C)C)cc1S(=O)(=O)n1cnc(C)c1,-6%,nt,9%,63%[activator],-33%,-6.4%,nt,-2%
COc1ccccc1NC(=O)N1CCC(C(=O)c2ccc(Cl)cc2)CC1,-9%,1%[46.1 µM],nt,7%,-24%,nt,-27%,-14%
Cc1cc(=O)oc2c(CN3CC(C)OC(C)C3)c(O)c(Cl)cc12 (stereo not drawn),1%,14%[46.1 µM],nt,-5%,8%,nt,-19%,-10%
CCOC(=O)C1CCN(c2ncnc3c2oc2ccc(Br)cc23)CC1,-1%,-6%,8%,5%,-83%,-8.2%,17%,19%
CCn1c2c(c3cc(C(=O)O)ccc31)CCCC2=O,-2%,7%,-1%,-17%,-84%,-3.3%,12%,-7%
Cn1c(CSCC(=O)Nc2ccccc2)nnc1SCc1ccccc1,1%,-19%[46.1 µM],nt,13%,-4%,nt,-22%,4%

# New compounds follow.
canonical_smiles,SARS PLP yeast,MARV entry inh,Cruzain inh noDet,2A StopGo,NS1 function inh,Cruzain Triton,Lassa entry inh,RE007 growth inh
COCCNc1nc2c(c(=O)n(C)c(=O)n2C)n1Cc1cccc(C)c1,1%,?,-13%,0%,-11%,2.4%,-29%,4%
Cc1cc(-c2nc3ncccc3o2)ccc1NC(=O)COc1cc(C)c(Cl)c(C)c1,nt,9%[46.1 µM],14%,-5%,nt,-2.0%,-3%[46.1 µM],nt
CCOC(=O)c1c(C)nc2sc3c(c2c1-c1ccc(OC)cc1)NC(c1ccc(OC)cc1)NC3=O (stereo not drawn),-5%,-7%,-5%,-17%,3%,-5.0%,-2%,4%
CN(C(=O)c1cccnc1)c1nc(-c2ccccc2)cs1,-3%,?,-3%,48%[activator],-55%,-1.7%,7%,5%
O=C(/C=C/c1ccccc1O)c1ccccc1,nt,14%[46.1 µM],nt,-15%,nt,nt,7%[46.1 µM],?
O=C(NCCS(=O)(=O)c1ccc(Br)cc1)c1c(F)cccc1F,nt,-26%[46.1 µM],nt,0%,3%,nt,29%[46.1 µM],4%
CCN(CC)c1ccc(NC(=O)COc2ccccc2C#N)cc1S(=O)(=O)Nc1ccc(OC)cc1,8%,?,?,89%[activator],13%,-6.0%,?,nt
CC(C)CCNC(=O)NC(=O)Cn1cc(C(F)(F)F)ccc1=O,7%,4%,-7%,nt,7%,2.4%,nt,nt
CCN(CC)CCNC(C(=O)Nc1cccc(C(C)=O)c1)c1ccccc1 (stereo not drawn),0%,?,nt,-15%,1%,nt,3%,-23%
C[C@H](NC(=O)Cn1cncn1)c1ccccc1,4%,1%,-4%,17%,-4%,4.9%,8%,23%
COc1ccc(NC(=O)c2cccc(N3CCCS3(=O)=O)c2)cc1,nt,nt,3%,49%[activator],nt,1.5%,?,nt
Cc1ccc(CSc2nnc(Cn3c(=O)sc4ccccc43)n2C)cc1,?,nt,5%,-8%,1%,-2.1%,nt,-8%

# Other compounds follow:
canonical_smiles,SARS PLP yeast,MARV entry inh,Cruzain inh noDet,2A StopGo,NS1 function inh,Cruzain Triton,Lassa entry inh,RE007 growth inh
COc1ccc(C2NC(=O)Cc3cc(OC)c(OC)cc32)cc1OC (stereo not drawn),-5%,nt,nt,-15%,-32%,nt,nt,7%
CN(c1ccccc1)S(=O)(=O)c1cccc(NC(=O)CC(C)(C)C)c1,16%,?,-10%,-15%,-23%,-4.4%,?,nt
Cc1ccc(NC(=O)c2ccc(NC(=O)CCS(=O)(=O)c3cccs3)cc2)cc1F,nt,19%[46.1 µM],-15%,-3%,nt,-1.9%,-13%[46.1 µM],nt
CCC(=Nc1ccccc1)C1=C(O)CCCC1=O,1%,-6%,nt,12%,-1%,nt,53%,13%
CS(=O)(=O)Nc1ccccc1C(=O)Nc1cc(Cl)cc(Cl)c1,22%,?,-11%,?,16%,-7.2%,?,-3%
Cc1ccc(N2CCn3c2nc2c3c(=O)n(CCCc3ccccc3)c(=O)n2C)cc1,nt,nt,16%,4%,nt,-4.5%,-5%[46.1 µM],nt
CCN(CC)c1ccc(NC(=O)C2CC3CCC2C3)cc1 (stereo not drawn),4%,?,-2%,32%[activator],-20%,3.8%,10%,-4%
COc1ccc2c(c1)C(=O)C(=O)N2,-5%,-1%,1%,-9%,1%,-3.2%,4%,-13%
Cc1cc(C)c(C)c(S(=O)(=O)N2CCC(C(=O)OCC(=O)N3c4ccccc4NC(=O)C3(C)C)CC2)c1C,6%,-11%,-7%,-30%,-1%,-8.3%,2%,8%
CC(=O)c1sc2nc(SCC(=O)N3CCCCC3)[nH]c(=O)c2c1C,-14%,-1%[46.1 µM],?,7%,3%,-14%,-9%,-6%
Nc1c(C(=O)c2ccc(Cl)cc2)sc2nc3c(cc12)CCC3,9%,?,-17%,24%,4%,-3.9%,-5%,-12%
CC(OC(=O)CCN1C(=O)C2CC=CCC2C1=O)C(=O)Nc1ccc(F)cc1 (stereo not drawn),nt,-4%[46.1 µM],nt,-16%,nt,nt,-22%,5%

# The list goes on:
canonical_smiles,SARS PLP yeast,MARV entry inh,Cruzain inh noDet,2A StopGo,NS1 function inh,Cruzain Triton,Lassa entry inh,RE007 growth inh
Cc1cccc(CC(=O)NC2CC(=O)N(c3cccc(F)c3)C2)c1 (stereo not drawn),nt,nt,13%,0%,nt,1.1%,16%[46.1 µM],nt
O=C(O)CCCCCNS(=O)(=O)c1ccc2c(c1)OCCO2,0%,nt,nt,-2%,2%,nt,nt,10%
Cc1nonc1CN(C)C(=O)CC1C(=O)NCCN1Cc1ccc(F)c(F)c1 (stereo not drawn),1%,-3%[46.1 µM],nt,2%,0%,nt,11%[46.1 µM],-7%
CCn1c(SC(C)C(=O)O)nnc1-c1cccnc1 (stereo not drawn),7%,23%,12%,14%,?,8.5%,-1%,13%
O=C(NCC(=O)N(c1ccccc1)C(C(=O)NCC1CCCO1)c1ccccc1)c1ccco1 (stereo not drawn),2%,12%&12%,14%,9%,-3%,3.9%,-14%,19%
CC(NC(=O)COc1ccc(S(=O)(=O)N2CCCC2)cc1)c1ccccc1 (stereo not drawn),1%,8%[46.1 µM],nt,2%,2%,nt,-7%,-7%
O=C1CC(c2ccco2)Cc2nc(N3CCc4ccccc4C3)ncc21 (stereo not drawn),-11%,-1%,-15%,-9%,-14%,-12%,?,-8%
COc1ccc(N2CCN(CC(O)COc3ccc(C(C)C)c(C)c3)CC2)cc1 (stereo not drawn),nt,?,0%,?,nt,-2.6%,?,nt
CCN1CCN(CC(=O)N2c3ccccc3Sc3ccccc32)CC1,0%,nt,nt,62%[activator],1%,nt,nt,-6%
COc1cc(C2C(C#N)=C(N)Oc3cc(C)oc(=O)c32)ccc1OC(=O)N1CCOCC1 (stereo not drawn),8%,?,-2%,1%,-4%,-2.0%,8%,22%
CC(OC(=O)Cc1coc2ccc3ccccc3c12)C(=O)NC(N)=O (stereo not drawn),2%,nt,nt,-14%,-33%,nt,nt,-15%
CCOc1ccc(N2CC(C)Cn3c2nc2c3c(=O)n(Cc3c(F)cccc3Cl)c(=O)n2C)cc1 (stereo not drawn),nt,2%[46.1 µM],-5%,7%,nt,-3.3%,0%[46.1 µM],nt

# One compound at a time (already shown):
# `CN(c1ccccc1)S(=O)(=O)c1cccc(NC(=O)CC(C)(C)C)c1` reads SARS PLP yeast: 16%; MARV entry inh: ?; Cruzain inh noDet: -10%; 2A StopGo: -15%; NS1 function inh: -23%; Cruzain Triton: -4.4%; Lassa entry inh: ?; RE007 growth inh: nt
# `O=C(/C=C/c1ccccc1O)c1ccccc1` reads SARS PLP yeast: nt; MARV entry inh: 14%[46.1 µM]; Cruzain inh noDet: nt; 2A StopGo: -15%; NS1 function inh: nt; Cruzain Triton: nt; Lassa entry inh: 7%[46.1 µM]; RE007 growth inh: ?

# Going on with the list.
canonical_smiles,SARS PLP yeast,MARV entry inh,Cruzain inh noDet,2A StopGo,NS1 function inh,Cruzain Triton,Lassa entry inh,RE007 growth inh
Cc1nn(Cc2ccccc2)c(C)c1NC(=O)c1cc(-c2ccco2)on1,5%,?,-16%,0%,-5%,-0.6%,-17%,16%
COc1ccc(CNc2nnnn2C)c(OC)c1,-2%,-3%,nt,-5%,3%,nt,-1%,-9%
COc1ccc(CC(=O)NCc2cccs2)cc1OC,-5%,-2%[46.1 µM],0%,-11%,-1%,-5.9%,-2%,-7%
CN(C)CCCN(C(=O)/C=C/c1cccs1)c1nc2c(F)cccc2s1,-11%,?,nt,?,nt,nt,?,1%
Nc1ccccc1C(=O)NC1CCCCNC1=O (stereo not drawn),0%,-1%,nt,10%,3%,nt,12%,-7%
Nc1cc(=O)[nH]c(SCC(=O)Nc2ccc(S(=O)(=O)N3CCCC3)cc2)n1,1%,-3%[46.1 µM],nt,11%,nt,nt,-12%[46.1 µM],-14%
COc1ccc2ccccc2c1/C=N/NC(=O)c1ccccc1F,-5%,18%,nt,-9%,-16%,nt,-3%,-12%

# Bioassay records: PubChem BioAssay, National Center for Advancing Translational Sciences (NCATS)
